Bioassay records from PubChem BioAssay.
2A Renilla: lowers the Renilla signal of an FMDV 2A StopGo reporter. HEK cells with a luciferase reporter of 2A StopGo recoding. AID 1745857. Potency, µM (doses to about 57.5 µM), for inactives: top-dose signal change, negative = less light. 120,000 tested, 0.32% active; active means well fitted falling curve with a large enough effect; inconclusive means small, poorly fitted or top-dose-only effect; inactive means no such curve, though single readings can be large or run the other way; also: nearly all actives have a fitted effect of over 55% in size; overnight with compound
StopGo FLuc: FMDV 2A StopGo reporter, firefly signal; Potency, µM (top dose mostly 57.5 µM), for the others: at the top dose signal change, negative = less light; 120,000 tested, 0.23% active; AID 1745856; HEK cells with a luciferase reporter of 2A StopGo recoding; active = well fitted falling curve with a large enough effect; inconclusive = small, poorly fitted or top-dose-only effect; inactive = no such curve, though single readings can be large or run the other way; also: nearly all actives have a fitted effect of over 60% in size; overnight with compound
* marks the source's active call; other numbers are inactive results; ? = inconclusive; [ ] = remark or other dose. % is scaled to controls: 0 for no effect and ±100 for the full control effect; potency is read from the fitted curve at half-maximal effect.

Structure | 2A Renilla | StopGo FLuc
CCc1cccc(NC(=O)C2CCC(CNS(=O)(=O)c3ccc(Br)s3)CC2)c1 (centres undefined) | -18% | -21%
CC(C)Cc1nn2c(=O)cc(COC(=O)c3cccc(NS(C)(=O)=O)c3)nc2s1 | 7% | 2%
COCCNC(=O)N1CCN(c2oc(-c3ccco3)nc2C#N)CC1 | 4% | 10%
Cc1cc(C)cc(N2CC(c3nc(-c4cccc(Cl)c4)no3)CC2=O)c1 (centres undefined) | -11% | -11%
COC(=O)c1cc2ccccc2cc1OS(=O)(=O)c1ccc(C)cc1C | 40%[activator] | 11%
Cc1ccc(OCC(=O)Nc2ccc3c(c2)sc(=O)n3C)cc1 | 5% | 437%[activator]
CCc1ccc(-c2cn3c(n2)sc2cc(C(=O)NCCC4=CCCCC4)ccc23)cc1 | -8% | 30%[activator]
Cc1ccc(-c2cc(C(=O)O)c3ccccc3n2)cc1 | 1% | 146%[activator]
CC(=O)c1sc(=S)n(C)c1C | 3% | 6%
CN1CCN(C(=O)c2ccc3c(c2)N(Cc2ccc(Cl)cc2)C(=O)c2ccccc2S3(=O)=O)CC1 | 22% | -19%
CN(C)S(=O)(=O)c1ccc(N2CCOCC2)c(C(=O)N2CCc3ccccc32)c1 | 18% | 0%
O=C(CSc1c2c(nc3cc(Cl)ccc13)CCCC2)N1CCN(c2ccccc2)CC1 | 1% | 42%[activator]
CCOC(=O)c1ccc(NC(=O)C2CC(=O)NC(=Nc3ccc(C)c(C)c3)S2)cc1 (centres undefined) | -19% | -13%
CCOc1ccc(C(=O)N2CC(=O)Nc3ccc(F)cc3C2c2ccc(F)cc2)cc1 (centres undefined) | 37%[activator] | -5%
Fc1ccccc1N1CCN(c2ncnc3c2nc2n3CCCCC2)CC1 | 3% | 6%
CCS(=O)(=O)N1CCc2cc(C(=O)Nc3ccc(Br)cc3F)ccc21 | ? | -17%
Cc1ccc(-c2nc(CS(=O)(=O)CC(=O)N3CCN(C)CC3)c(C)o2)cc1 | 1% | 26%
O=c1c2cnn(-c3ccc(Cl)cc3)c2ncn1Cc1ccc(Cl)cc1Cl | -3% | -22%
COC(=O)C1=CNC=C(C(=O)OC)C1c1cccc(Cl)c1 | 29% | 19%
CCN1CCN(c2cc(C)c3cc(NC(=O)/C=C/c4cccc(Cl)c4)ccc3n2)CC1 | -10% | 15%
Cn1c(CN2CCN(c3ccccc3NS(C)(=O)=O)CC2)nc2ccccc21 | -37% | ?
COc1ccc(-c2nc(SCC(=O)NCCc3ccccc3)n[nH]2)cc1 | -21% | 28%
CNC1Cc2ccccc2C1 | 6% | 6%
CCOc1ccccc1CNC(=O)c1cnc2sc(N3CCC(C)CC3)nn2c1=O | -12% | -8%
Cc1ccc(C)c(NC(=O)C(NS(=O)(=O)c2ccc3c(c2)CCC(=O)N3)c2ccccc2)c1 (centres undefined) | 7% | -24%
Cc1cc(C)cc(C(=O)Nc2c3c(nn2-c2ccccc2C)CS(=O)(=O)C3)c1 | -11% | -29%
COC(=O)c1ccc(OCC2c3cc(OC)c(OC)cc3CCN2C(=O)COc2ccc(Cl)cc2)cc1 (centres undefined) | 0% | 3%
CN(Cc1nc2ccccc2[nH]1)S(=O)(=O)c1cc(Br)ccc1Br | 0% | 0%
COc1ccccc1OCCC(=O)OCc1ccc(Cl)cc1 | 11% | 12%
CCn1c(SCc2cc(OC)c(Br)cc2OC)nc2cc(S(N)(=O)=O)ccc21 | ? | ?
COCCCN1C(=O)c2ccccc2CC1(C)C(=O)NC1CCCCC1 (centres undefined) | -9% | 4%
Cc1ccc(OCc2nn3c(=O)c4ccccc4nc3s2)cc1 | -6% | 82%[activator]
COc1cc(NC(=O)c2cc(S(=O)(=O)N3CCC(C)CC3)cn2C)cc(OC)c1OC | -2% | -17%
CCOC(=O)c1cc(-c2ccccc2)sc1NC(=O)CCN1CCN(C)CC1 | -1% | -7%
COc1cccc(C(=O)NN)c1 | 8% | 51%[activator]
CC1=C(C(=O)Nc2ccccc2)C(c2ccc(Cl)cc2)N2C(=O)CSC2=N1 (centres undefined) | -15% | -13%
Cc1ccc(C(=O)c2oc3ccccc3c2NC(=O)COc2ccccc2C)cc1 | -3% | -21%
CC(C)Cn1c(SCc2cc(=O)n3[nH]cc(C#N)c3n2)nnc1-c1ccccc1F | -3% | -3%
Cc1cc(Br)ccc1NCC(=O)N(C1CCCCC1)C1CCS(=O)(=O)C1 (centres undefined) | 3% | 0%
CC(C)(C)c1cc(C(c2cccs2)c2c[nH]c3ccccc23)cc(C(C)(C)C)c1O (centres undefined) | ? | ?
CCc1ccccc1OCC(=O)Nc1ccc(S(=O)(=O)Nc2nc(C)cc(C)n2)cc1 | 104%[activator] | 11%
COc1ccc(OC)c(NC(=O)CSc2ccc(-c3sc(C)nc3C)nn2)c1 | 6% | -21%
COc1ccccc1NC(=O)CN1C(=O)C(c2ccc(F)cc2)=NC1(C)C | -11% | 19%
Cc1cc(C)c(NC(=O)Cn2nc3c(cc2=O)CCCC3)c(C)c1 | -10% | -2%
Cc1nn(-c2ccccc2)c2c1cc1c(=O)[nH]c(=O)nc-1n2-c1cccc(C(F)(F)F)c1 | -14% | -16%
CCOC(=O)c1[nH]c2ccc(F)cc2c1NC(=O)CC | 3% | 9%
O=C(NNC(=O)C12CCC(CC1)C2)c1ccncc1 | 8% | -2%
Cc1ccc(NC(=O)CN2CCN(c3ccccc3F)CC2)cc1F | 13% | -3%
COc1cc(OC)cc(C(=O)Nc2c(NC3CCCCC3)c3ccccc3oc2=O)c1 | 2% | 6%
O=C(COc1ccc(Cl)cc1)Nc1cccc2cccnc12 | -16% | -10%
CCC(C)NS(=O)(=O)c1ccc(C(=O)Nc2ccc3ccccc3n2)cc1 (centres undefined) | ? | -77%
Cc1ccc(-n2c(=O)c3c4c(sc3n(CC(=O)Nc3ccccc3C)c2=O)CCCCC4)cc1C | -16% | -15%
CN(Cc1ccccc1)C(=O)CSc1ncnc2sc3c(c12)CCC3 | -10% | -5%
CCOc1ccc(C(=O)NCC2CCCO2)cc1Cl (centres undefined) | 4% | 90%[activator]
O=C(CCCN1C(=O)C(c2ccccc2)Oc2cccnc21)NCc1ccccc1 (centres undefined) | 1% | 12%
Cc1ccc(OCCn2c(C3CC(=O)N(Cc4ccc(F)cc4)C3)nc3ccccc32)c(C)c1 (centres undefined) | 53%[activator] | -17%
Nc1nc(SCc2nnc(-c3ccccc3)o2)n[nH]1 | -14% | 84%[activator]
Cc1cc(CSc2ncccc2C(=O)Nc2ccnn2Cc2ccco2)no1 | 60%[activator] | 9%
Cc1ccc2nc(/C(C#N)=C/c3ccco3)[nH]c2c1 | -17% | 0%
Cc1cccc(Cn2nnc3c(=O)n(Cc4nc(-c5ccccc5C)no4)cnc32)c1 | 0% | -9%

Later entries
Structure | 2A Renilla | StopGo FLuc
Cc1cccc(C)c1NC(=O)CN(C)C(=O)Cc1csc(-c2cccc(Br)c2)n1 | -4% | 2%
O=C(Nc1ncc(Cc2cccc(Cl)c2)s1)C1CCCCC1 | 16% | 12%
COc1cc(/C=C/C(=O)Oc2ccc3c(c2)OCO3)cc2c1OCCO2 | -2%[1.06 µM] | 13%
CC1CCC2(CC1)NC(=O)N(NC(=O)CSc1ncnc3ccccc13)C2=O (centres undefined) | -23% | 3%
Cc1cccc(C(=O)Nc2cccc3ccc(C)nc23)c1 | 58%[activator] | 15%
COc1ccc2cc(C(=O)OC(C)C(=O)N3CCOCC3)c(C)nc2c1 (centres undefined) | 13% | 77%[activator]
OCc1c[nH]c2c1ccc1ccccc12 | -30% | 5%
CCCn1c2ccc(C)cc2c2nnc(SCCN3CCCCC3)nc21 | -17% | -20%
COc1ccc(CNC(=O)Cn2c(SCC(=O)Nc3ccc(OC)cc3)nc3ccccc32)cc1 | -7% | 2%
C1CN2CCC1CC2 | -6% | -18%
COc1ccc(NC(=O)C2CCN(S(=O)(=O)c3ccc4[nH]c5c(c4c3)CCCCC5)CC2)cc1 | -21% | -21%
O=C(COc1ccccc1)Nc1ccc(S(=O)(=O)N(Cc2ccccc2)c2ccccc2)cc1 | -5% | -10%
Cc1cccc(NC(=O)c2cc(C3CC3)nc3ccccc23)c1C | 12% | -5%
Cc1ccc(C)c(NC(=O)Cn2c(-n3nc(C)cc3C)nc(-c3ccccc3)cc2=O)c1 | 8% | -2%
CCn1c(=O)c2ccccc2n(CC(=O)Nc2ccc(-c3cccc(C(F)(F)F)c3)cc2)c1=O | 116%[activator] | 0%
Cc1ccc(-c2nn3c(C)nnc3c3ccccc23)cc1S(=O)(=O)NCC(C)O (centres undefined) | 547%[activator] | 87%[activator]
CCCOC(=O)c1ccc(Nc2c(C(=O)OCC)cnc3c(C)cc(Cl)cc23)cc1 | 0% | 13%
CN(Cc1ccc(C(=O)NCC(F)(F)F)cc1)C(=O)C1CCN(C(=O)C2CC2)CC1 | 1% | -9%
CC1=C(C(=O)Nc2ccccc2)C(c2ccccn2)n2nc(SCc3ccccc3Cl)nc2N1 (centres undefined) | -4% | -21%
O=C(COC(=O)c1ccc2ccccc2n1)c1cccc(Cl)c1 | 0% | 31%[activator]
CC(C)(O)C#Cc1ccc(C(=O)N2CCN(C/C=C/c3ccccc3)CC2)cc1 | ? | ?
Cc1cc(C)cc(NC(=S)NCc2ccc(Cl)cc2)c1 | 81%[activator] | 19%
Cc1cccc(-c2nc(CC(=O)N(C)CC(=O)Nc3cccc(F)c3)cs2)c1 | 10% | 13%
O=C(CSc1ncnc2sccc12)N(Cc1ccc(F)cc1)C1CCCCC1 | -4%[1.06 µM] | ?
COc1ccc(NC(=O)CCS(=O)(=O)c2nc(-c3ccccc3)cc(C(F)(F)F)n2)cc1 | -20% | -8%
CNC(=O)CSc1ccccc1OC | 5% | -7%
COc1ccc(N(CC(=O)N2CCN(c3ccccc3F)CC2)S(=O)(=O)c2c(C)n[nH]c2C)cc1 | 15% | -3%
COc1nnc(-c2ccc(N3CCCCC3)c(NC(=O)c3ccc(C)cc3)c2)c2ccccc12 | -7% | -3%
CCN1CCc2c(sc(NC(=O)c3ccc(S(=O)(=O)N(CCOC)CCOC)cc3)c2C(N)=O)C1 | -1% | -11%
Cn1cc(S(=O)(=O)c2ccc(Cl)cc2)c(=O)c2cc(F)c(N3CCCC3)cc21 | 4% | -11%
CCc1ccc(-c2noc(CN3CCCc4c(C(=O)NC(C)C)cccc43)n2)cc1 | 7% | 21%
Cc1cc(C)c2oc(-c3cc(NC(=O)c4ccco4)cc(C)c3O)nc2c1 | -9% | 14%
COC(=O)C1CN(CC(C)C)CCS(=O)(=O)N1Cc1ccc(C)cc1 (centres undefined) | 89%[activator] | 0%
CC(C)OCCCNC(=O)COc1ccc2c(-c3ccccc3)cc(=O)oc2c1 | 2% | 8%
Cc1ccccc1-c1nnc(-c2ccc(C(=O)NCC3CCCO3)cc2)o1 (centres undefined) | ? | -3%
COCCn1c2c(c(=O)[nH]c1=O)C(c1ccccc1)C1=C(N2)c2ccccc2C1=O (centres undefined) | 56%[activator] | 67%[activator]
CCn1c(C)c(C)c2cc(C(=O)N3CCN(c4ccccc4)CC3)ccc21 | 2% | -13%
COc1ccc(CNC(=O)Cc2nn(C)c(=O)c3ccccc23)cc1OC | -25% | -15%
Cc1ccc(CN(Cc2ccco2)c2cnc(S(C)(=O)=O)nc2C(=O)Nc2ccc(Br)cc2)o1 | ? | 0%
COc1ccc2c(c1)c(=O)c(S(=O)(=O)c1ccc(Cl)cc1)cn2C | 179%[activator] | 15%
Cc1ccc(-c2cnc(SCC(=O)Nc3cccc(Cl)c3)o2)cc1C | 22% | -10%
O=C(CC1(O)C(=O)N(Cc2ccccc2)c2ccc(Br)cc21)c1ccccc1 (centres undefined) | 79%[activator] | 11%
Cn1c(=O)c2c(ncn2CC(=O)Nc2ccccc2C(=O)NC2CCCC2)n(C)c1=O | -6% | -7%
FC(F)(F)c1ccccc1-n1ccnc1 | -11% | -14%[11.5 µM]
Cc1cccc(C(=O)NCCS(=O)(=O)Cc2ccccc2)c1 | -14%[1.06 µM] | 12%
CC(=O)N1CCc2c(sc3c2c(=O)n(-c2ccccc2C)c(=O)n3Cc2cccc(F)c2)C1 | 15% | -14%
Cc1ccc(-n2c(=O)c3cccnc3n2CC(=O)Nc2cccc(C)c2C)cc1 | -20% | -23%
Cc1nn(C(=O)C2CCCN2S(=O)(=O)c2ccc(F)cc2)c(C)c1Sc1ccccc1 (centres undefined) | 2% | -11%
COc1ccc2c(Sc3ccc(Cl)cc3)c(C(=O)N3CCC(C)CC3)[nH]c2c1 | -10% | 48%[activator]

This is a subset. The share of hits here may be higher or lower than overall.
